# Bioassay records deposited in PubChem by several laboratories.
# CBX7 inh: blocks human CBX7 binding to H3K27me3 peptide; O95931; AlphaScreen His6-CBX7 / biotin-H3K27me3 peptide binding; active compounds read low; normalised signal (fraction of DMSO) (concentration not given with the values); 66,000 compounds, 1.1% hits; AID 1224903; in the data active = normalised signal below about 0.5;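 note: 100 nL library stock added to about 20 µL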
# Target sequence (O95931 whole entry, looked up): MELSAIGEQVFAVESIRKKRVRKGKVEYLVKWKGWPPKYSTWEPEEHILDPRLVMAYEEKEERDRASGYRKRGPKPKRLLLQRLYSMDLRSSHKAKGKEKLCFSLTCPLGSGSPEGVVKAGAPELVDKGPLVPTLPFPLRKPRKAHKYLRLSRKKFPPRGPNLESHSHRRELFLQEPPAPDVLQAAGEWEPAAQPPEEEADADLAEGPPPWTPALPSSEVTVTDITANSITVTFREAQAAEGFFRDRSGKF
# CBX7 inh z-score: recorded beside CBX7 inh, whose call it bears; z-score; measured here: z-score of CBX7 signal; some inactives read as strong as hits; reference of the scale not given here;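 same signal on another scale; lower means less binding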
# * = called active by the depositor; & = joins results of further samples. An excerpt; the hit share may differ from the screen's.
SMILES,CBX7 inh,CBX7 inh z-score
Cc1nc2ccc(C(=O)NCCCN(C)C)cc2nc1C,0.98,-0.29
CC(=O)Nc1nc2ccccc2n1CCN1CCCCC1,0.96,-1.6
CC(NC(=O)c1ccccc1F)C(c1cccs1)N1CCN(c2ccccc2F)CC1 (configuration not stated),0.87,-1.4
Brc1ccc(Nc2nc(-c3cccnc3)nc3ccccc23)cc1,0.99,-0.26
Cc1ccc(CNC(=O)CSc2nc3nc(C)c(Cc4ccc(C)cc4)c(C)n3n2)cc1,1.3,2.7
Cc1cccc(N2CCN(C(=O)c3cnn4c(C)c(Cc5ccccc5Cl)c(C)nc34)CC2)c1C,0.73,-7.3
CCN(CC)CCn1c(=N)n(CC(=O)c2ccc(C)cc2)c2ccccc21,1,0.43
Cc1cc(C)cc(-n2cc(-c3ccc(F)cc3)[nH]c2=O)c1,0.92,-2.4
COCCNC(=O)c1cc(-c2cccnc2)nc2ccc(S(=O)(=O)N3CCCCCC3)cc12,1,0.09
O=C(Nc1ccc(S(=O)(=O)Nc2cnc3ccccc3n2)cc1)c1ccc2c(c1)OCO2,1,0.049
CC(=O)Nc1cccc(Oc2nnc(-c3ccc(C)cc3)c3ccccc23)c1,0.73,-1.1
O=C(COc1ccc(-c2nnc(N3CCOCC3)c3ccccc23)cc1)N1CCCCC1,1,0.33
Cc1ccc(-c2nc(NC(=O)CCCOc3ccccc3C)sc2C)cc1,1,0.036
COc1ccc2cc(CCNS(=O)(=O)c3ccccc3)c(=O)[nH]c2c1,0.94,-0.39
O=C(NCCN1CCOCC1)c1cc(-c2ccco2)on1,0.97,-0.93
COc1ccc(-c2nn(C)c3sc(C(=O)NCCC(C)C)cc23)cc1OC,0.86,-1.8
CCc1cccc(C)c1NC(=O)C(C(C)C)N1C(=O)c2ccccc2C1=O (configuration not stated),1,2.1
Oc1ccc(-c2nnc(Nc3ccc(OC(F)(F)F)cc3)c3ccccc23)cc1,1,0.21
CCOc1ccccc1CN1C(=O)c2ccccc2C1C(=O)NCCCN1C(C)CCCC1C (configuration not stated),1,1.5
COc1ccc(Nc2nc3ccccc3nc2NS(=O)(=O)c2ccc(C)cc2)cc1,0.93,-1.2
Cc1nc(-c2cccc(NC(=O)c3cccc(Br)c3)c2)cs1,0.98,-0.043
COc1cccc(C(=O)N(Cc2ccc(C(C)C)cc2)C2CCS(=O)(=O)C2)c1 (configuration not stated),0.83,-0.17
COc1ccc(-n2c(C)nc3cc(C(=O)NCc4ccccn4)ccc32)cc1,0.9,-2.7
CCOc1ccc(-c2cc(C(=O)NCCc3ccc(Cl)cc3)c3ccccc3n2)cc1,1.5,3.7
COc1ccc(-n2c(C)nc3cc(C(=O)NCC4CCCO4)ccc32)cc1 (configuration not stated),1,-0.068
# The listing continues.
SMILES,CBX7 inh,CBX7 inh z-score
O=C(CC1Nc2ccccc2NC1=O)NCc1ccccc1Cl (configuration not stated),1,-0.02
CCOc1ccc(NS(=O)(=O)c2ccc3[nH]cc(C(=O)N4CCCC4)c(=O)c3c2)cc1,0.86,-0.61
O=C1CCc2cc(S(=O)(=O)NC(Cc3ccccc3)C(=O)NCc3ccccn3)ccc2N1 (configuration not stated),0.92,-1.6
Cc1csc2ncc(C(=O)Nc3ccc(N(C)C)cc3)c(=O)n12,0.98,-0.81
COc1ccc(-c2nc(Nc3ccc(OCc4ccccc4)cc3)c3ccccc3n2)cc1OC,0.91,-1.1
Cc1cccc(CC(=O)NCCc2cc3ccc(C)c(C)c3[nH]c2=O)c1,1,0.44
O=C(CC1Sc2ccccc2NC1=O)Nc1cc(Cl)cc(Cl)c1 (configuration not stated),1,1.2
COc1cccc(C2CC(c3ccc(C)cc3)Nc3ncnn32)c1OC (configuration not stated),0.99,-0.42
N#Cc1nc(COc2ccc(Cl)cc2)oc1NCCN1CCOCC1,0.97,-1.3
Cc1ccc(-c2[nH]c(-c3ccc(Cl)cc3)nc2SCC(=O)Nc2nccs2)cc1,0.98,-0.37
Cn1cc(-c2cc(-c3ccccc3)nn2-c2ccccc2)c2ccccc21,1&1.1,0.28&1.5
COc1ccc(NC(=O)c2cc(-c3ccccc3)nc3ccccc23)c(OC)c1,1.1,0.19
CC1=Nc2cc(C(=O)NC(C)c3ccccc3)ccc2Sc2c(C)ccc(C)c21 (configuration not stated),0.77,-3.5
COc1cccc(OCC(O)CN(CCO)Cc2ccccc2)c1 (configuration not stated),0.96,-0.58
COc1ccc(CCNC(=O)c2cc(C)no2)cc1OC,0.96,-0.69
COc1ccc(NC(=O)c2oc3ccc(S(=O)(=O)N4CCCCC4)cc3c2C)cc1Cl,1,1
CCn1c(C2CC(=O)N(c3cc(Cl)ccc3OC)C2)nc2ccccc21 (configuration not stated),1.1,0.6
COc1ccccc1-c1csc(NC(=O)c2ccc(Cc3ccccc3)cc2)n1,1.2,2.3
O=C(NCc1ccc2c(c1)OCO2)c1ccc2nc(N3CCOCC3)sc2c1,1.1,3
CCCCN(C)CCCNC(=O)c1cnn(-c2ccccc2)c1-n1cccc1,1,-0.0021
O=C(Cn1cnc2c(nnn2Cc2ccc(F)cc2)c1=O)N1CCOCC1,1.1,1.2
CCOc1ccccc1NC(=O)CCc1c(C)nc2cc(-c3ccc(OC)cc3OC)nn2c1C,0.96,-0.52
CCC1CCCCN1CCCNC(=O)c1cc(Nc2ccc(OC)cc2OC)nc2ccccc12 (configuration not stated),0.71,-4.4
Cc1ccc2c(c1)-c1c(cnn1CC(=O)Nc1cccnc1Cl)CO2,0.93,-1.4
CCCCOCCCNC(=O)c1c(-c2ccccc2)noc1C,0.97,-0.034
# Next part
SMILES,CBX7 inh,CBX7 inh z-score
O=C(Nc1ccccc1C(F)(F)F)c1cc(-c2ccc(F)cc2)on1,1.1,0.077
COc1ccc(CCNC(=O)CSCc2nc(-c3cccc(C)c3)oc2C)cc1OC,0.86,-2.7
CCN(CC)S(=O)(=O)c1ccc2c(c1)N(CC(=O)N1CCCCCC1)C(=O)CO2,1.1,1.1
Cc1nc2ccc(C(=O)N3CCC(C)CC3)cc2nc1C,1,0.24
O=C(CN1N=C(c2ccccc2)CCC1=O)NCCCN1CCN(Cc2ccccc2)CC1,1.1,1.3
CCN(CC)S(=O)(=O)c1ccc(C(=O)Nc2nc3ccc(OC)cc3s2)cc1,1,0.41
Cc1ccc(NC(=O)c2cc3sccc3n2Cc2ccc(F)cc2)cc1,1,1.2
Cc1cc(NC(=O)c2cc(-c3ccc(Br)cc3)on2)nn1Cc1ccc(Cl)cc1,1,1
COc1ccc(NC(=O)CNC(=O)Cn2cnc3sc(C)c(C)c3c2=O)cc1OC,1,1
Cc1c(C(=O)NCc2ccccn2)oc2ccc(S(=O)(=O)N3CCC4(CC3)OCCO4)cc12,0.43*,-5.4*
COc1ccc(-n2c3c(cc(C(=O)Nc4cccc(F)c4)c2=O)C(=O)CC(C)(C)C3)cc1,1,1
Cn1ccnc1SCC(=O)Nc1ccc2nc(SCc3ccccc3F)sc2c1,0.91,-0.19
Cc1cc(C)n2c(Nc3ccccc3C)c(-c3cccnc3)nc2n1,0.98,-0.44
Cc1ccc(N2C(=O)c3ccc(C(=O)Nc4ccccc4C(=O)O)cc3C2=O)cc1C,1.1,1.2
COc1ccccc1-c1nc(S(=O)(=O)c2ccccc2)c(N(C)C)o1,1.1,0.82
COc1cccc(NC(=O)CSc2nc3nc(C)c(Cc4ccc(Cl)cc4)c(C)n3n2)c1,1,0.39
COc1ccccc1-c1cc(=O)n(CC(=O)NCc2ccc(Cl)cc2)c2c1CCCC2,0.79,-4.8
Cc1nc(N2CCN(c3cccc(Cl)c3)CC2)c2c3c(sc2n1)CCCC3,1,1.1
Cc1cc(N2CCC(C(=O)N3CCCC3)CC2)n2nc(C)c(-c3ccc(Cl)cc3)c2n1,1.1,0.25
CC(=O)NCCc1c[nH]c2ccc(OCc3ccccc3)cc12,0.98,-0.14
O=C(Nc1ccc2oc(-c3ccccc3Br)nc2c1)c1ccc2c(c1)OCCO2,1,2.5
c1ccc(Cn2c3ccccc3c3nnc(SCCN4CCCCC4)nc32)cc1,0.65,-1.4
Cc1cc(NC(=O)C2CC(c3ccc(F)cc3)=NO2)no1 (configuration not stated),1,1.8
CC1CCCN(c2nnc(Cc3cccnc3)c3ccccc23)C1 (configuration not stated),0.96,-0.81
O=C(Nc1ccc(Cl)cc1)C1CCN(S(=O)(=O)c2cccc3cccnc23)CC1,1,0.079
# (continued)
SMILES,CBX7 inh,CBX7 inh z-score
CC(NS(=O)(=O)c1ccc(Br)cc1)C(c1cccs1)N1CCOCC1 (configuration not stated),0.98,-0.56
CCOc1ccc(OCC)c(NS(=O)(=O)c2cnc[nH]2)c1,0.95,-0.84
Cc1ccc(S(=O)(=O)CCc2nnc(NC(=O)c3ccc(F)cc3)s2)cc1C,1.1,1.5
Cc1cccc(C(=O)NC(Cc2ccccc2)c2nc3ccccc3n2C)c1 (configuration not stated),0.98,-0.43
Cc1ccc(S(=O)(=O)Nc2cccc(-c3cn4ccccc4n3)c2)c(C)c1,0.94,-1.6
C=CCNC(=O)c1ccc(NC2=NC3CS(=O)(=O)CC3S2)cc1 (configuration not stated),1,0.41
CCCN(C(=O)c1cc2c(s1)-c1ccccc1OC2)c1ccccc1F,1.5,13
COc1cc(NS(=O)(=O)c2ccc3c(c2)CCN3C(C)=O)cc(OC)c1,0.98,-0.69
COc1ccc(C(=O)Nc2c3c(nn2-c2ccccc2C)CS(=O)(=O)C3)cc1,1.2,1.2
Cc1ccc(CCNC(=O)CCN2N=C(c3ccccc3)CCC2=O)cc1,1.1,0.13
COc1cc(-c2nnc3ccc4ccccc4n23)ccc1OCc1ccccc1,0.97,-0.35
COc1ccc(OC)c(NC(=O)CCc2nc(-c3ccc(C)cc3)no2)c1,1,0.077
Cc1ccc(-c2n[nH]c3nc(C)cc(=O)n23)cc1,1,2.2
Cc1ccc(Nc2cc(C(=O)NCc3ccc(F)cc3)c3ccccc3n2)c(C)c1,1.2,4.2
CCCN(CCC)C(=O)C1CCN(c2cc(C)nc3c(-c4ccc(OC)c(OC)c4)c(C)nn23)CC1,0.99,-0.018
Cc1ccc(-c2ccc(=O)n(CC(=O)NCCC(C)C)n2)cc1,1,0.078
Cc1cc(Cl)ccc1NC(=O)Cn1cnc2ccccc2c1=O,1,0.65
COc1ccc(-c2cc(C(=O)NCC3CCCO3)c3ccccc3n2)c(OC)c1 (configuration not stated),0.98,-0.73
Cc1ccccc1C(=O)Nc1ccc2oc(-c3cc(Br)ccc3Cl)nc2c1,0.99,-0.17
COc1ccccc1CC(=O)Nc1ccc(-c2noc(-c3ccc(Cl)cc3)n2)cc1,1,0.19
c1ccc(N2CCN(c3nnc(Cc4ccncc4)c4ccccc34)CC2)nc1,1,0.26
CCOc1ccccc1NS(=O)(=O)c1ccc2c(c1)CCN2C(=O)CC,1.1,1.7
CN(C)CCCNc1ncnc2c1c(-c1ccccc1)cn2-c1ccc(F)cc1,0.9,-2.4
O=C(NCc1ccc2c(c1)OCO2)C(Cc1ccccc1)NS(=O)(=O)c1cccs1 (configuration not stated),1.1,1.6
COc1ccc2c(c1)CCc1sc(NC(=O)c3cccc(F)c3)nc1-2,1.1,2

# Random excerpt: 5 compounds from above.
SMILES,CBX7 inh,CBX7 inh z-score
CCn1c(C2CC(=O)N(c3cc(Cl)ccc3OC)C2)nc2ccccc21 (configuration not stated),1.1,0.6
CC(=O)NCCc1c[nH]c2ccc(OCc3ccccc3)cc12,0.98,-0.14
Cc1cc(C)n2c(Nc3ccccc3C)c(-c3cccnc3)nc2n1,0.98,-0.44
COc1ccc(-c2nn(C)c3sc(C(=O)NCCC(C)C)cc23)cc1OC,0.86,-1.8
Cc1cccc(N2CCN(C(=O)c3cnn4c(C)c(Cc5ccccc5Cl)c(C)nc34)CC2)c1C,0.73,-7.3

# Shown with two lines to a compound: 6 of the compounds above
# Values in the order: CBX7 inh | CBX7 inh z-score
- CC(NS(=O)(=O)c1ccc(Br)cc1)C(c1cccs1)N1CCOCC1 (configuration not stated)
→ 0.98 | -0.56
- Cc1ccc(-c2ccc(=O)n(CC(=O)NCCC(C)C)n2)cc1
→ 1 | 0.078
- CN(C)CCCNc1ncnc2c1c(-c1ccccc1)cn2-c1ccc(F)cc1
→ 0.9 | -2.4
- Cc1ccc(CCNC(=O)CCN2N=C(c3ccccc3)CCC2=O)cc1
→ 1.1 | 0.13
- Cc1ccc(S(=O)(=O)CCc2nnc(NC(=O)c3ccc(F)cc3)s2)cc1C
→ 1.1 | 1.5
- CCCN(C(=O)c1cc2c(s1)-c1ccccc1OC2)c1ccccc1F
→ 1.5 | 13

# Continued:
SMILES,CBX7 inh,CBX7 inh z-score
Cc1nnc2ccc(N3CCN(c4cccc(C(F)(F)F)c4)CC3)nn12,0.91,-2.6
Cc1ccc(NC(=O)c2cnn(-c3ccccc3)c2C2CCNCC2)cc1Cl,1.2,2.8
CCOc1ccc(CN2C(=O)c3ccccc3C2C(=O)NC2CCCCCC2)cc1 (configuration not stated),1.2,1.9
CN(C)CC(=O)N1c2ccccc2CCc2ccc(NC(=O)c3ccccc3)cc21,0.91,-2
Cc1cccn2c(Nc3ccccc3)c(-c3cccs3)nc12,0.87,-4.9
Cc1ccc(CCN2CC(C(=O)NCCCN(C)Cc3ccccc3)CC2=O)cc1 (configuration not stated),1,2.3
Cc1nc2sccn2c1-c1csc(Nc2ccc(Br)cc2)n1,0.92,-0.095
O=C(c1cc(Nc2cccc(C(F)(F)F)c2)nc2ccccc12)N1CCC2(CC1)OCCO2,1.3,7
COc1ccc(C(=O)CC2(O)C(=O)N(C)c3ccc(Br)cc32)cc1 (configuration not stated),0.98,-0.098
COc1cc(C)nc(N(CC(C)C)S(=O)(=O)c2ccc(C)cc2)n1,1.1,1.5
